SARS PLpro yeast: SARS-CoV PLP inhibition in yeast; S. cerevisiae expressing SARS-CoV PLpro, growth rescue; control for the full effect not named in the record; Potency, µM (series often up to 32.9 µM), without a hit: top-dose activity, positive = growth rescue; hit rate 0.19% among 330,000; AID 485353; active means well fitted rising curve with a large enough effect; inconclusive means small, poorly fitted or top-dose-only effect; inactive means no such curve, though single readings can be large or run the other way; further: 0% is about no effect; nearly all actives have a fitted effect of over 55% in size; growth read by luminescence after 48 h
Cruzain noTriton: inhibitors of Trypanosoma cruzi cruzain without detergent | purified cruzain, Z-FR-AMC fluorescence, no detergent | hit rate 2.3% among 200,000 | AID 1476 | Potency, µM, for the others: max response, negative = inhibition, most hits filed as inhibitors;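 further: plate controls were enzyme without inhibitor for no effect and buffer without enzyme for full effect; nearly all actives have a fitted effect of over 40% in size; top concentration of the series not given in the record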
Target sequence (P25779 123-467 limits assumed): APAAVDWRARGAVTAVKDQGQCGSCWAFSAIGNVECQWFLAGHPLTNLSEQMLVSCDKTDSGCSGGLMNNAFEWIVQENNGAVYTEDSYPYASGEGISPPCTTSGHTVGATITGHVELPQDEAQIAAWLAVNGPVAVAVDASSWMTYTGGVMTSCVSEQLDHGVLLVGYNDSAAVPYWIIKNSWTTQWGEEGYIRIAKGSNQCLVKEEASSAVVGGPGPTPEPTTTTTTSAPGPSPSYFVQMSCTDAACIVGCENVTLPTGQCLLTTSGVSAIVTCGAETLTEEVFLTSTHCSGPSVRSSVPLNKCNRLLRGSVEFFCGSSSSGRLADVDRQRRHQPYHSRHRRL
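Detergent-free condition (0.00005% Triton X-100) in acetate buffer pH 5.5 with DTT. 1.5 nM enzyme and compound were pre-mixed 15 min, then 2 uM Z-FR-AMC substrate added; reaction progress from fluorescence change between first and third reads (60 s).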
LASV entry inh: Lassa virus entry inhibition | hit rate 1.2% among 300,000 | AID 540256 | Potency, µM (top dose mostly 37.9 µM), for inactives: at the top dose activity change, negative = inhibition, usual class: inhibitors | Lassa virus pseudotype entry inhibition, cell reporter; control for the full effect not named in the record; active means well fitted inhibition curve with a large enough effect; inconclusive means small, poorly fitted or top-dose-only effect, or effect the other way; inactive means flat fitted curve, though single readings scatter; tested in HEK293 cells; further: on the % scale 0 is the no-effect control and ±100 the full control effect; nearly all actives have a fitted effect of over 50% in size; luciferase read-out
RE007 growth inh: less growth of the S. pombe RE007 Vpr strain; S. pombe RE007 Vpr strain, BacTiter-Glo ATP luminescence, 24 h; control for the full effect not named in the record; Potency, µM (top dose mostly 92.2 µM), for the others: top-dose activity change, negative = less growth; hit rate 0.21% among 360,000; AID 651644; active = well fitted falling curve with a large enough effect; inconclusive = small, poorly fitted or top-dose-only effect; inactive = no such curve, though single readings can be large or run the other way;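 further: on the % scale 0 is the no-effect control and ±100 the full control effect; nearly all actives have a fitted effect of over 50% in size; the assay follows cell death caused by Vpr and the record does not say whether a fall means rescue or toxicity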
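Fission yeast RE007 carrying one integrated HIV-1 vpr copy, seeded at OD 0.01 in PMG+AL medium with 23 nL pinned compound. Grown 24 h at 30 degrees; viability read by BacTiter-Glo luminescence after 5 min.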
Cruzain Triton: inhibitors of Trypanosoma cruzi cruzain with detergent; P25779; purified cruzain, Z-FR-AMC fluorescence, 0.01% Triton; Potency, µM, without a hit: max response, negative = inhibition, hits mostly inhibitors; hit rate 0.43% among 200,000;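 further: plate controls were neutral wells for no effect and buffer without enzyme for full effect; nearly all actives have a fitted effect of over 40% in size; top concentration of the series not given in the record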
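Z-FR-AMC hydrolysis (2 uM substrate) by cruzain (1.5 nM) monitored kinetically at ex 360/em 450 nm after 15 min room-temperature compound exposure; 0.01% Triton X-100, pH 5.5, 5 mM DTT.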
StopGo reporter: lowers the luciferase signal of an FMDV 2A StopGo reporter; human cells with a luciferase reporter of 2A StopGo recoding; control for the full effect not named in the record; Potency, µM (doses to about 57.9 µM), without a hit: top-dose signal change, negative = less light; hit rate 1.2% among 410,000; active = well fitted falling curve with a large enough effect; inconclusive = small, poorly fitted or top-dose-only effect; inactive = no such curve, though single readings can be large or run the other way; tested in HEK293T cells; further: on the % scale 0 is the no-effect control and ±100 the full control effect; nearly all actives have a fitted effect of over 45% in size; luciferase light after 4 h
NS1 function inh: influenza NS1 inhibition; S. cerevisiae slowed by influenza A NS1, growth recovery by OD600; Potency, µM (top dose mostly 46.1 µM), inactives show top-dose activity, positive = more growth; hit rate 0.4% among 270,000; AID 2326; active means well fitted rising curve with a large enough effect; inconclusive means small, poorly fitted or top-dose-only effect; inactive means no such curve, though single readings can be large or run the other way; further: nearly all actives have a fitted effect of over 50% in size
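Compounds were scored for reversing the slow growth caused by influenza A NS1 in S. cerevisiae, measured by optical density at 600 nm. Assay medium contained 2% galactose at pH 6.0; NS1-free yeast of the same strain were the positive control.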
Marburg entry inh: blocks Marburg virus binding to or entry into cells | Marburg virus pseudotyped entry inhibition, cell reporter; control for the full effect not named in the record; about a third of the inactives were read at about 46 µM | Potency, µM (doses to about 37.8 µM), for the others: at the highest dose activity change, negative = inhibition, hits mostly inhibitors | hit rate 1.8% among 300,000 | AID 540276; active = well fitted inhibition curve with a large enough effect; inconclusive = small, poorly fitted or top-dose-only effect, or effect the other way; inactive = flat fitted curve, though single readings scatter; tested in HEK293 cells; about a fifth of its hits are not listed in these tables; further: on the % scale 0 is the no-effect control and ±100 the full control effect; luciferase read-out
* marks the source's active call; other numbers are inactive results; ? = inconclusive; nt = not tested or not shown; [ ] = remark or other dose. Unless noted, the call rests on the fitted dose curve; in most records, active means well fitted curve in the direction sought with a large enough effect; inconclusive means small, poorly fitted or top-dose-only effect, or another doubt; inactive means no such curve, though single readings can be large; an effect the other way counts as inactive or inconclusive. Potency means the concentration at half of the fitted maximal effect.

molecule,SARS PLpro yeast,Cruzain noTriton,LASV entry inh,RE007 growth inh,Cruzain Triton,StopGo reporter,NS1 function inh,Marburg entry inh
CCOC(=O)c1ccc(S(=O)(=O)N2CCN(C(=O)CSc3nc4ccccc4o3)CC2)cc1,-6%,1%,?,18%,-2.8%,-25%,7%,?
O=S(=O)(Nc1ccc(N=Nc2ccc(O)c3ccccc23)cc1)c1ccccc1,-49%,?,?,-3%,-1.0%,-19%,?,?
CCOC(=O)C1CCN(C(=O)C2CCN(C3=NS(=O)(=O)C(c4ccc(C)c(C)c4)=C3C)CC2)CC1,nt,?,nt,nt,-3.4%,0%,nt,13%[46.1 µM]
O=C(CCN1C(=O)/C(=C/c2ccccc2Cl)SC1=S)Nc1ccccn1,?,nt,nt,3%,nt,-26%,-3%,nt
CC(OC(=O)c1ccc(S(=O)(=O)N2CCCCC2)cc1)C(=O)NC1CCCCC1C (configuration not stated),1%,nt,0%,6%,nt,-3%,4%,-3%
CC1=C(C(N)=O)C(c2cccs2)n2ncnc2N1 (configuration not stated),-4%,nt,?,4%,nt,-12%,0%,?
COc1ccccc1NC(=O)Cn1c(=O)n(C)c(=O)c2sc3c(c21)COC(C)(C)C3,4%,nt,nt,6%,nt,-17%,3%,nt
Cc1ccc(-c2ccc(C(=O)Nc3cccc(F)c3)o2)c2ccccc12,-21%,?,?,1%,-17%,-4%,-49%,-28%
NS(=O)(=O)c1cccc(NC(=O)COC(=O)COc2ccc3ccccc3c2)c1,-1%,nt,0%,12%,nt,3%,nt,?
S=C(N/N=C/c1ccccc1Cl)Nc1ccccc1,?,6%,?,-3%,-9.1%,9%,30%,-19%
CC(C)CNc1nnnc2c1sc1nc(N3CCOCC3)c3c(c12)CCCC3,-1%,nt,0%,-15%,nt,-11%,1%,-15%[46.1 µM]
CCn1cc(C(C)NC(=O)Nc2ccccc2C(=O)OC)c(C)n1 (configuration not stated),0%,nt,15%,6%,nt,12%,1%,?
COc1ccccc1CNC(=O)CN(C)CC(=O)Nc1ccccc1Br,-2%,nt,7%,15%,nt,5%,nt,-2%
Cc1ccc2c(c1)-c1c(ssc1=S)C(C)(C)N2C(=O)CSC1=NCCS1,8%,?,-22%,3%,-2.6%,-27%,29%,?
COc1ccc(CCC2(C)NC(=O)NC2=O)cc1 (configuration not stated),2%,3%,-2%,-7%,0.4%,-7%,-9%,-3%
CC(C)CNC(=O)CN(C1CCCCC1)S(=O)(=O)c1ccccc1,4%,-17%,1%,27%,0.0%,19%,-5%,?
CCOc1ccccc1C(=O)Nc1c(NC)c2ccccc2oc1=O,nt,-5%,?,nt,-3.1%,-13%,nt,-16%[46.1 µM]
O=C1C(Cc2cnc[nH]2)NC(=S)N1c1ccccc1 (configuration not stated),0%,nt,-5%[46.1 µM],?,nt,-3%,5%,3%[46.1 µM]
Cc1ccc[n+](-c2[nH]c(=O)sc2/C=N/N=C(\[O-])c2cccnc2)c1,0%,nt,10%[46.1 µM],19%,nt,-25%,-17%,8%[46.1 µM]
CCCNc1cc(C)oc(=O)c1C(=O)CCC,4%,19%,14%,11%,0.2%,nt,-14%,6%
O=C(NCc1ccccc1Cl)c1cc(=O)[nH]c2ccccc12,-20%,nt,6%,-16%,nt,10%,2%,-13%[46.1 µM]
CC(C)c1nnc(NC(=O)CCC(=O)N2CCN(c3ccc(F)cc3)CC2)s1,0%,nt,-22%[46.1 µM],-8%,nt,-9%,-8%,2%[46.1 µM]
Cc1ccc(C(=O)N/N=C\c2ccc(Br)o2)o1,-9%,-3%,16%,5%,-6.8%,nt,-45%,?
COc1ccc(NC(=O)c2cc3nc(-c4ccccc4)cc(C)n3n2)cc1OC,0%,nt,-9%[46.1 µM],-2%,nt,-20%,0%,?
CCCCC(=O)Nc1nnc(/C=C/c2ccc(OC)cc2)s1,-6%,nt,nt,4%,nt,16%,9%,nt
c1ccc(C2=NN(c3ccccc3)C(c3ccco3)C2)cc1 (configuration not stated),-1%,nt,-12%[46.1 µM],-17%,nt,-19%,0%,-11%
Cc1coc2cc3oc(=O)c4c(c3cc12)CCCC4,-2%,-29%,-11%,7%,2.0%,nt,-8%,?
COc1ccc(NC(=O)c2ccc(NC(=O)N3CCSc4ncccc43)cc2)cc1,nt,-3%,?,nt,-5.4%,?,nt,nt
Cc1coc2c(C)c3oc(=O)c(CC(=O)NCCc4ccc(Cl)cc4)c(C)c3cc12,nt,-5%,?,nt,-0.1%,-12%,nt,2%[46.1 µM]
NCCCNC(=O)Cn1c(=O)c2c3c(sc2n(Cc2ccccc2)c1=O)CCCC3,0%,nt,6%[46.1 µM],-2%,nt,-17%,3%,?
Cc1ccc(C)c(N2CCN(C(=O)c3ccc(Nc4nc5ccccc5n5nnnc45)cc3)CC2)c1,nt,17%,0%[46.1 µM],nt,-0.6%,1%,nt,11%[46.1 µM]
COc1ccc(C(=O)OCC(=O)Nc2c(C)cccc2C)c(OC)c1OC,2%,nt,nt,1%,nt,-17%,-3%,16%[46.1 µM]
O=C(NCC1CCCO1)c1nn2c(C(F)(F)F)cc(-c3cccs3)nc2c1Br (configuration not stated),4%,nt,3%,5%,nt,-18%,5%,26%[46.1 µM]
COC(=O)C1(S(=O)(=O)c2cccc3nsnc23)CC1,5%,-1%,17%,-3%,-3.4%,5%,20%,-7%
OC(COCC1COc2ccccc2O1)CN1CCN(c2ccccc2F)CC1 (configuration not stated),1%,-5%,6%,-1%,1.0%,-27%,-16%,-10%[46.1 µM]
CNC(=S)N/N=C1\C(=O)c2cccc3cccc1c23,-6%,-12%,-24%,-12%,-0.8%,3%,-15%,-5%
O=C(COC(=O)c1ccc(S(=O)(=O)NCc2ccco2)cc1)NC1CCCCCC1,-3%,-9%,3%,-3%,1.9%,-4%,8%,1%
Cc1cccc(NC(=O)c2oc3ccc(S(=O)(=O)N4CCC5(CC4)OCCO5)cc3c2C)c1C,nt,?,?,nt,-8.7%,?,nt,nt
CC(C)(C)c1ccc(OCc2nc(-c3ccccn3)no2)c(Br)c1,nt,?,?,-2%,-5.4%,3%,-64%,?
CCOC(=O)CC1(c2ccc(OC)c(OC)c2)C(=O)c2ccccc2C1=O,-1%,nt,?,8%,nt,-9%,-3%,?
CC(=O)Nc1ccccc1C(=O)OCC(=O)c1ccccc1Cl,2%,-18%,?,-3%,-3.4%,31%[activator],-19%,0%
CCOC(=O)C1=C(C)N(c2ccc(OC)cc2)C(=O)/C1=C\c1ccc(O)c(OCC)c1,0%,nt,nt,-2%,nt,?,7%,nt
CCCn1c(C)nc2c(c1=O)c1nc3ccccc3nc1n2CCC1=CCCCC1,5%,?,?,4%,-5.0%,?,2µM*,23µM*
CNc1nc(N)c([N+](=O)[O-])c(NCC2CCCO2)n1 (configuration not stated),0%,nt,nt,11%,nt,2%,1%,nt
CC(C)NC(=O)CC(=O)N/N=C/c1cccs1,19%,nt,1%[46.1 µM],-3%,nt,-6%,5%,-3%[46.1 µM]
COC(=O)C(NC(=O)c1ccccc1)(Nc1nccs1)C(F)(F)F (configuration not stated),8%,-1%,1%,-16%,1.6%,0%,-11%,1%
CCN(CC)CCCNC(=O)Cn1ncc2c3ccccc3n(Cc3ccccc3)c2c1=O,nt,6%,1%[46.1 µM],nt,-1.9%,13%,nt,0%[46.1 µM]
CCOc1ccc(S(=O)(=O)N2CCN(C(=O)CCOc3ccccc3C)CC2)cc1,3%,nt,?,1%,nt,-28%,nt,?
c1cnc(SCCOc2cccc3ccccc23)nc1,-40%,4%,-5%,-12%,-3.6%,40%[activator],-53%,?
O=C(N/N=C/c1coc2ccccc2c1=O)c1cc(O)cc(O)c1,-1%,nt,2%[46.1 µM],-11%,nt,-22%,nt,0%[46.1 µM]
Cc1cccn2c(=O)c(C=O)c(N3CCN(C)CC3)nc12,-7%,nt,12%,-9%,nt,-11%,17%,?
Cc1ccc(N(CCC#N)C(=O)COC(=O)C2CCN(S(=O)(=O)c3ccc(C)c(C)c3)CC2)cc1,1%,nt,-6%,3%,nt,4%,nt,2%[46.1 µM]
CC(C)CC(=O)N/C(N)=N/c1nc2ccccc2o1,0%,nt,?,-18%,nt,0%,-3%,?
O=c1cc(-c2ccc(O)cc2)oc2c(O)c(O)c(O)c(O)c12,0%,nt,nt,5%,nt,-11%,3%,nt
Cc1ccc(-n2nc(CO)c(C(=O)NC(C)CCCc3ccccc3)n2)cc1 (configuration not stated),nt,-5%,-26%[46.1 µM],nt,0.0%,0%,nt,-2%[46.1 µM]
COCCNC(=O)CCC(=O)N1Cc2cccc(OC)c2Oc2ncccc21,nt,10%,-1%[46.1 µM],nt,-1.9%,0%,nt,nt
CC(OC(=O)C1CCN(c2ccc(C(F)(F)F)cn2)CC1)C(=O)NC1CCCCC1C (configuration not stated),1%,nt,-12%,-13%,nt,-16%,nt,-28%
Cc1c(NS(=O)(=O)c2cccc(C(=O)N3CCC(C(N)=O)CC3)c2)c(=O)n(-c2ccccc2)n1C,20%,nt,35%[46.1 µM],35%,nt,-9%,nt,?
O=C(CSc1nnc2sc3ccccc3n12)NCc1ccc2c(c1)OCO2,3%,nt,nt,3%,nt,2%,0%,nt
CC(=NNC(=S)N1CC2CCC(CC2)C1)c1ccncn1,nt,nt,0.32µM*,?,nt,0%,nt,?
O=C1Nc2ccc(Br)cc2C1(O)Cc1ccncc1 (configuration not stated),3%,-2%,1%,3%,4.0%,-17%,4%,7%
COc1ccc(CN(C)C2CCCCC2)c(C)c1C,0%,8%,-14%,-1%,4.9%,nt,7%,-16%
COc1ccc(Nc2nccc(N(C)C)c2C#N)cc1,1%,nt,18%[46.1 µM],-14%,nt,-4%,2%,23%[46.1 µM]

Compound activity from PubChem BioAssay.
